Screens (PubChem BioAssay)
HIV Env fusion – inhibitors of HIV-1 Env-driven cell-cell fusion, primary screen, HeLa-JRFL effector, CEM21 target cells, luciferase; inhibition, % at 12.3 µM; 360,000 tested, 1.1% active;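 active = mean replicate inhibition score of at least 50 and every replicate individually at or above 50; inconclusive = only one of the two criteria met; inactive = mean below 50 and not all replicates reaching 50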;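 note: 0% = plate neutral controls and 100% = maraviroc near 300 nM; one replicate is shown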
Active calls of the source: *; ? = inconclusive; [ ] = remark or other dose.

HIV Env fusion	canonical_smiles
-10.4[16.7 µM]	CCCNC(=O)N1CC2(CN(Cc3cccc(OC)c3)C2)c2c([nH]c3cc(OC)ccc23)[C@H]1CO
-15.2[16.7 µM]	CO[C@@H]1CC[C@@H]2CCOc3c(C#N)cccc3C(=O)N(C)CCCC(=O)N(C)C[C@H]1O2
-20.5	O=C(NCc1ccccc1)[C@H]1CCCN1C(=O)[C@H]1CCCN1C(=O)c1cccc(Cl)c1
2.9[16.7 µM]	CC=Cc1ccc2n(c1=O)C[C@H]1[C@H](CO)[C@@H](C(=O)NCc3ccc(F)cc3)N(Cc3cncnc3)[C@@H]21 (mixture of isomers)
-18.8[16.7 µM]	Cc1ccc(S(=O)(=O)N[C@H]2C=C[C@@H](CC(=O)NCCN3CCCCC3)O[C@H]2CO)cc1
?	CN1C(=O)c2cc(NC(=O)Cc3cccs3)ccc2OC[C@H]2O[C@@H](CC(=O)NCCc3ccncc3)CC[C@@H]21
-6.5[16.7 µM]	CN(C)C(=O)C[C@H]1CC[C@H](NC(=O)C2CCOCC2)[C@H](CO)O1
10.6[16.7 µM]	Cc1ccc(S(=O)(=O)N[C@H]2CC[C@H](CCNC(=O)c3ccccc3F)O[C@@H]2CO)cc1
-37.2	C[C@H]1Cn2cnc(C(=O)N3CCN(C(=O)OC(C)(C)C)CC3)c2C(=O)N1
-2.2[16.7 µM]	CCCN(C)C[C@@H]1OCCCC[C@@H](C)Oc2ccc(NS(=O)(=O)c3ccc(C)cc3)cc2C(=O)N([C@@H](C)CO)C[C@@H]1C
-1.1[16.7 µM]	COc1cccc(S(=O)(=O)Nc2ccc3c(c2)[C@H]2C[C@@H](CC(=O)N4CCCCC4)O[C@H](CO)[C@H]2O3)c1
1.1[16.7 µM]	CNC[C@@H]1OCCCC[C@@H](C)Oc2ccc(NC(=O)CCCN(C)C)cc2C(=O)N([C@H](C)CO)C[C@@H]1C
1.9[16.7 µM]	CO[C@@H]1CN(C)C(=O)c2cc(NC(=O)Nc3ccccc3Cl)ccc2OC[C@@H](C)N(S(=O)(=O)CC(F)(F)F)C[C@H]1C
6.5[16.7 µM]	CCNC(=O)Nc1ccc2c(c1)C(=O)N(C)[C@@H]1CC[C@@H](CC(=O)N[C@@H](C)c3ccccc3)O[C@H]1CO2
-48.0[16.7 µM]	CO[C@@H](C(=O)N(C)C[C@H]1OCc2ccccc2-c2c(n(C)c3ccccc23)C(=O)N([C@@H](C)CO)C[C@H]1C)c1ccccc1
-1.9[16.7 µM]	Cc1ccccc1S(=O)(=O)N(C)C[C@@H]1OCc2ccccc2-c2ccccc2C(=O)N([C@@H](C)CO)C[C@H]1C
-4.6[16.7 µM]	COCC(=O)N(C)C[C@@H]1Oc2cc(-c3ccccc3F)ccc2S(=O)(=O)N([C@H](C)CO)C[C@@H]1C
14.6[16.7 µM]	CC(=O)N(C)C[C@@H]1Oc2cc(C3=CCCCC3)ccc2S(=O)(=O)N([C@@H](C)CO)C[C@H]1C
?	Cc1onc(-c2ccccc2)c1C(=O)N1CCN(C(=O)C(=O)c2cccc(C(F)(F)F)c2)CC1
35.7[16.7 µM]	CO[C@H](CN(C)S(=O)(=O)c1ccc(Cl)cc1)[C@@H](C)CN([C@H](C)CO)S(=O)(=O)c1cccc(Cl)c1
33.6[16.7 µM]	C[C@@H]1CN([C@@H](C)CO)S(=O)(=O)c2ccc(C#CC3CC3)cc2O[C@@H]1CN(C)Cc1ccccc1F
2.4[16.7 µM]	C[C@@H]1CCCCO[C@H](CN(C)Cc2ccncc2)[C@@H](C)CN([C@@H](C)CO)C(=O)c2cc(NC(=O)CCCN(C)C)ccc2O1
-16.6[16.7 µM]	CO[C@H]1CN(C)C(=O)c2cc(NC(=O)c3ccc(F)cc3)ccc2OC[C@@H](C)N(Cc2cocn2)C[C@@H]1C
5.7	C=CCN=C1NC(c2ccccc2)C(C(=O)OC)=C(C)N1Cc1cccc(C(F)(F)F)c1 (stereo not drawn)
-15.7[16.7 µM]	Cc1ccccc1S(=O)(=O)N1C[C@H](O)COC[C@@H]2O[C@H](CC(=O)NCc3ccccc3Cl)CC[C@H]21
-10.2[16.7 µM]	COCC(=O)N[C@@H]1C=C[C@H](CC(=O)N2CCCCC2)O[C@@H]1CO
0.8[16.7 µM]	O=C(C[C@H]1C=C[C@@H](NC(=O)Nc2cccc(F)c2)[C@H](CO)O1)NCC1CCCCC1
-2.1[16.7 µM]	O=C(C[C@H]1CC[C@@H](NC(=O)CN2CCOCC2)[C@@H](CO)O1)NCc1cccc(F)c1
-6.3[16.7 µM]	COc1ccc(S(=O)(=O)N2C[C@H](O)COC[C@H]3O[C@H](CC(=O)N[C@H]4CCN(Cc5ccccc5)C4)CC[C@@H]32)cc1
-57.7	COc1ccc(SSc2ccc(OC)cc2C(=O)O)c(C(=O)O)c1
-103.1[16.7 µM]	CO[C@@H]1CN(C)C(=O)c2cc(NC(=O)c3ccno3)ccc2OC[C@@H](C)N(S(C)(=O)=O)C[C@H]1C
8.8[16.7 µM]	CN(C)C(=O)[C@@H]1[C@@H](CO)[C@@H]2Cn3c(ccc(-c4cncnc4)c3=O)[C@@H]2N1Cc1cc(F)ccc1F
7.0[16.7 µM]	O=C(Nc1ccc2c(c1)[C@H]1C[C@@H](CC(=O)N3CCOCC3)O[C@H](CO)[C@H]1O2)Nc1ccccc1F
16.7[16.7 µM]	CC(C)(C)[S@](=O)N1Cc2cc(C(=O)NCc3ccccc3F)nc(-c3cccc(-c4ccncc4)c3)c2[C@@H]1CCO
8.5	COC(=O)C1=C(C)N(C)C(=NCc2ccc(OC)cc2)NC1c1ccc(Cl)cc1 (stereo not drawn)
3.5[16.7 µM]	CO[C@@H]1CN(C)C(=O)c2ccc(NS(=O)(=O)c3ccccc3F)cc2OC[C@H](C)NC[C@@H]1C
29.3[16.7 µM]	CCCNC(=O)N1CC2(CCN(Cc3cccc(F)c3)CC2)c2c([nH]c3cc(OC)ccc23)[C@H]1CO
1.6	Cc1cccc(NC(=O)CNC(=O)[C@@H](Cc2ccccc2)NC(=O)[C@H]2O[C@@H](n3ccc(=O)[nH]c3=O)[C@H](O)[C@@H]2O)c1C
6.2[16.7 µM]	COc1ccc(S(=O)(=O)Nc2ccc3c(c2)[C@@H]2C[C@@H](CC(=O)NCC4CC4)O[C@H](CO)[C@@H]2O3)cc1
-15.3[16.7 µM]	COc1ccc(NC(=O)N(C)C[C@H]2Oc3cc(-c4cccc(C(=O)N(C)C)c4)ccc3S(=O)(=O)N([C@H](C)CO)C[C@@H]2C)cc1

Arranged by length of the SMILES (largest number first): 5 of the compounds above
HIV Env fusion	canonical_smiles
1.6	Cc1cccc(NC(=O)CNC(=O)[C@@H](Cc2ccccc2)NC(=O)[C@H]2O[C@@H](n3ccc(=O)[nH]c3=O)[C@H](O)[C@@H]2O)c1C
8.8[16.7 µM]	CN(C)C(=O)[C@@H]1[C@@H](CO)[C@@H]2Cn3c(ccc(-c4cncnc4)c3=O)[C@@H]2N1Cc1cc(F)ccc1F
7.0[16.7 µM]	O=C(Nc1ccc2c(c1)[C@H]1C[C@@H](CC(=O)N3CCOCC3)O[C@H](CO)[C@H]1O2)Nc1ccccc1F
3.5[16.7 µM]	CO[C@@H]1CN(C)C(=O)c2ccc(NS(=O)(=O)c3ccccc3F)cc2OC[C@H](C)NC[C@@H]1C
8.5	COC(=O)C1=C(C)N(C)C(=NCc2ccc(OC)cc2)NC1c1ccc(Cl)cc1 (stereo not drawn)

Next compounds
HIV Env fusion	canonical_smiles
-5.9[16.7 µM]	CCC(=O)Nc1ccc2c(c1)OC[C@@H](C)N(C(=O)COC)C[C@H](C)[C@@H](OC)CN(C)C2=O
?	C[C@H](NC(=O)C[C@@H]1C[C@@H]2c3cc(NC(=O)C4CCC4)ccc3O[C@@H]2[C@@H](CO)O1)c1ccccc1
2.8[16.7 µM]	COc1ccc(NC(=O)N[C@H]2CC[C@@H](CC(=O)NC3CCC3)O[C@H]2CO)cc1
-4.3[16.7 µM]	C[C@@H]1CN([C@@H](C)CO)C(=O)Cc2cc(NS(C)(=O)=O)ccc2O[C@@H]1CN(C)Cc1ccc(Cl)c(Cl)c1
23.8[16.7 µM]	C[C@@H]1CN([C@H](C)CO)C(=O)Cc2cc(NC(=O)Nc3ccc(C(F)(F)F)cc3)ccc2O[C@H]1CN(C)S(=O)(=O)c1ccc(Cl)cc1
-94.7[16.7 µM]	CC(C)NC(=O)Nc1ccc2c(c1)C(=O)N([C@H](C)CO)C[C@H](C)[C@H](CN(C)C(=O)NC(C)C)OCCCC[C@@H](C)O2
9.7[16.7 µM]	O=C(NC[C@@H]1CC[C@H]2[C@H](CN2Cc2ccccc2F)O1)C1CC1
8.7[16.7 µM]	CCCN1C[C@@H](C)[C@H](OC)CN(C)C(=O)c2cc(NC(=O)Nc3ccccc3F)ccc2OC[C@H]1C
12.7[16.7 µM]	COc1cccc(S(=O)(=O)Nc2ccc3c(c2)OC[C@H](C)N(C(=O)Cc2cccnc2)C[C@H](C)[C@H](OC)CN(C)C3=O)c1
3.6[16.7 µM]	C[C@@H]1CN([C@H](C)CO)C(=O)Cc2cc(NC(=O)Nc3ccc(C(F)(F)F)cc3)ccc2O[C@H]1CN(C)S(C)(=O)=O
5.6[16.7 µM]	CCCNC(=O)[C@H]1[C@H](CO)[C@H]2Cn3c(ccc(-c4cncnc4)c3=O)[C@@H]1N2C(=O)Nc1ccccc1
-11.5	COC(=O)[C@]12C[C@H](CC(=O)NCCC(C)C)C(=O)N(Cc3ccc4c(c3)OCO4)C1=C[C@H](C(C)(C)C)O[C@@H]2C
-22.3	c1ccc2c(c1)OCc1nccn1-2
-10.6	CCCN1C(=O)c2n[nH]c(C(C)C)c2C1c1cccc(C(F)(F)F)c1 (stereo not drawn)
10.5[16.7 µM]	C[C@@H]1CN([C@@H](C)CO)C(=O)c2ccccc2-c2ccccc2CO[C@H]1CN(C)C(=O)NC1CCCCC1
-9.9[16.7 µM]	O=C(C[C@@H]1C=C[C@@H](NS(=O)(=O)c2ccccc2)[C@@H](CO)O1)NCc1ccc(Cl)c(Cl)c1
5.4[16.7 µM]	COCCNC(=O)C[C@H]1C[C@H]2c3cc(NS(=O)(=O)c4ccccc4)ccc3O[C@H]2[C@H](CO)O1
16.9[16.7 µM]	CCCC(=O)Nc1ccc2c(c1)C(=O)N(C)C[C@@H](OC)[C@@H](C)CN(CCC(F)(F)F)[C@H](C)CO2
-10.7[16.7 µM]	O=C(C[C@H]1C[C@H]2c3cc(NS(=O)(=O)c4ccccc4)ccc3O[C@H]2[C@@H](CO)O1)NCC(F)(F)F
-5.3[16.7 µM]	CCCC#Cc1ccc2c(c1)O[C@H](CN(C)C(=O)CN(C)C)[C@H](C)CN([C@@H](C)CO)S2(=O)=O

Overlap with the part before: 2 entries, followed by the next part.
HIV Env fusion	canonical_smiles
-10.7[16.7 µM]	O=C(C[C@H]1C[C@H]2c3cc(NS(=O)(=O)c4ccccc4)ccc3O[C@H]2[C@@H](CO)O1)NCC(F)(F)F
-5.3[16.7 µM]	CCCC#Cc1ccc2c(c1)O[C@H](CN(C)C(=O)CN(C)C)[C@H](C)CN([C@@H](C)CO)S2(=O)=O
23.6[16.7 µM]	C[C@H]1CCCCO[C@H](CN(C)Cc2ccccc2)[C@@H](C)CN([C@@H](C)CO)C(=O)c2cc(NC(=O)c3ccncc3)ccc2O1
4.5	C[C@H]1[C@H](c2ccccc2)Oc2cccc(NCCc3ccccc3)c2S(=O)(=O)N1Cc1ccc(F)cc1
-15.9[16.7 µM]	CCCNC(=O)N1CC2(CN(Cc3cccc(OC)c3)C2)c2c([nH]c3cc(OC)ccc23)[C@@H]1CO
-29.9[16.7 µM]	COc1ccccc1S(=O)(=O)N[C@@H]1C=C[C@H](CC(=O)N2CCCCC2)O[C@H]1CO
-60.0	COc1ccc(C2CC(=O)C(c3ccc4ccccc4c3)=CN2Cc2ccccc2)cc1 (stereo not drawn)
-17.0[16.7 µM]	CO[C@@H]1CC[C@H]2CCN(C)C(=O)[C@H](C)[C@H](OC)CN(C)C(=O)c3cccc(C#N)c3OC[C@@H]1O2
-17.2[16.7 µM]	CO[C@@H]1CN(C)C(=O)c2ccc(NC(=O)c3ccc4c(c3)OCO4)cc2OC[C@@H](C)N(Cc2ccc3c(c2)OCO3)C[C@H]1C
13.8[16.7 µM]	COc1cccc(C(=O)Nc2ccc3c(c2)C(=O)N(C)[C@@H]2CC[C@@H](CC(=O)NCCCN4CCOCC4)O[C@@H]2CO3)c1
8.4[16.7 µM]	CN1C(=O)c2cc(NC(=O)Cc3cccs3)ccc2OC[C@H]2O[C@H](CC(=O)NCCc3ccncc3)CC[C@H]21
-363.5[16.7 µM]	COCCOC(=O)N1C(=O)[C@@]2(c3cc(C#Cc4ccc(OC)cc4)ccc31)[C@H](c1ccc(O)cc1)N1[C@H](c3ccccc3)[C@H](c3ccccc3)OC(=O)[C@H]1[C@@H]2C(=O)N1CCCCCCC1
-84.3	O=[N+]([O-])c1ccc2c(c1)CCO[C@@]21O[C@H](CCO)C[C@H](O)[C@H]1O
13.4[16.7 µM]	Cc1cccc(NC(=O)Nc2ccc3c(c2)C(=O)N(C)[C@H]2CC[C@H](CC(=O)NCc4ccccc4Cl)O[C@@H]2CO3)c1
15.2[16.7 µM]	O=C(O)C[C@@H]1C=C[C@H](NC(=O)c2ccccc2F)[C@@H](CO)O1
-16.4[16.7 µM]	C[C@@H]1CN([C@@H](C)CO)S(=O)(=O)c2ccc(C#CC3CCCC3)cc2O[C@@H]1CN(C)Cc1cncnc1
-5.7	COCCCn1cnn2c(=O)c3ccccc3nc2c1=O
6.0[16.7 µM]	CO[C@@H]1CN(C)C(=O)c2cc(NC(=O)NC(C)C)ccc2OC[C@@H](C)N(CC2CC2)C[C@@H]1C
24.0[16.7 µM]	C[C@H](CO)N1C[C@H](C)[C@H](CN(C)Cc2ccc(-c3ccccc3)cc2)Oc2ccc(NC(=O)Cc3cn(C)c4ccccc34)cc2C1=O
-32.7[16.7 µM]	CC(C)(C)[S@@](=O)N1Cc2cc(C(=O)NCc3ccccn3)nc(-c3cccc(-c4ccccc4F)c3)c2[C@H]1CCO
3.0[16.7 µM]	COCC(=O)Nc1ccc2c(c1)[C@H]1C[C@H](CC(=O)NCc3ccc(Cl)cc3)O[C@@H](CO)[C@H]1O2

Only part of the results is shown; rates above refer to the full screens.
